Ecoli growth = E. coli growth inhibition. hit rate 0.21% among 330,000. Escherichia coli growth, OD600, 23 h; active compounds read low. OD600 absorbance (no concentration beside the values);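 active = OD600 absorbance below the run mean of sample wells minus 3.6 SD, in any replicate, cut at about 0.56 in these data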;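 note: stock transfer was 300 nL into about 60 µL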
Beta2AR agonist = activates human beta-2 adrenergic receptor causing internalization | P07550 | Am2.2-beta2AR cells, FAP receptor internalization, flow cytometry; reference of the scale not given here | response, % (concentration not given with the values) | hit rate 0.43% among 340,000 | AID 504454;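 active = response above a set limit, near 3 SD of response in nonfluorescent compounds, cut at about 42% in these data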;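 note: stock transfer was 100 nL into about 11 µL; a reference agonist was the positive control; negative values mostly stem from fluorescent compounds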
Target sequence (P07550 whole entry, looked up): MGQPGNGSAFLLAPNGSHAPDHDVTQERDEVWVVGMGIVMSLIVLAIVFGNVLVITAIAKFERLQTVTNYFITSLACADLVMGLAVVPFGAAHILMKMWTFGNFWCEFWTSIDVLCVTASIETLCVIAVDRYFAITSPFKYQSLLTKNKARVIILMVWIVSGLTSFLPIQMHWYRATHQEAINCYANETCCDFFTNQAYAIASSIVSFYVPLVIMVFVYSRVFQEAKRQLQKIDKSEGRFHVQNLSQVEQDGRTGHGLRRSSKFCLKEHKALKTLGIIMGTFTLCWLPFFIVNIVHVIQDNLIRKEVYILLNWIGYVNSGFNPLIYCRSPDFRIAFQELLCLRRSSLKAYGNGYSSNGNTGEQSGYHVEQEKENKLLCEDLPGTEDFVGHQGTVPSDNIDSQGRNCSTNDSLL
LANA-H2B inh = blocks KSHV LANA binding to histone H2A/H2B; Q9QR71; cell-free LANA-H2A/H2B peptide, fluorescence polarization; inhibition, % (no concentration beside the values); hit rate 0.6% among 320,000; in the data active = inhibition mostly above about 10%, no sharp cut-off; inactive = mostly below about 6.7%;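 note: stock transfer was 7.5 nL into about 10 µL; 0% = median of vehicle wells and 100% = median of positive control wells; one replicate is shown; the record names a cut of 25% in any replicate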
UCH37 DUB inh = inhibitors of human deubiquitinating enzyme UCH37 | Q9Y5K5 | purified proteasome/UCH37, Ub-AMC cleavage fluorescence | inhibition, % (concentration not given with the values) | hit rate 0.33% among 330,000;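 active = mean of two replicates above 20%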;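 note: 0% = compound-free wells with enzyme and 100% = wells lacking proteasome; stock transfer was 100 nL into about 20 µL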
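Material: human UCH37 enzyme supplied as purified proteasome complex / Amount: 0.15 nM proteasome as dispensed / Buffer or medium: pH 7.4 Tris-HCl (50 mM) with ovalbumin, ATP-MgCl2, DTT / Times: preincubation 30 min, reaction 25 min, room temperature / Technique: AMC fluorescence from Ub-AMC cleavage, excitation 355 nm, emission 460 nm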
A1 inh = inhibitors of the anti-apoptotic protein A1, read as caspase activation; caspase activation, % (test concentration not listed); AID 2462; hit rate 0.066% among 330,000; MEF A1-2A-BIM cells, Caspase-Glo 3/7 luminescence, 3 h; percent of clofoctol response, vehicle zero;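 active = over half of replicate activation scores above 10%, or exactly half above 10 with the replicate mean above 10; inconclusive = replicate mean below 10 yet half the replicates above 10; inactive = over half of replicates below 10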;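 note: wells of about 30 µL received 50 nL stock; many hits fall short of the cut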
HNF4A DNA FP = change in binding of human HNF4 alpha to DNA. P41235. HNF4a-FITC DNA binding, fluorescence polarization, 1 h. activity change, % at 10 µM. hit rate 0.3% among 360,000; in the data active = activity change above about 30%, passing the limit was not always enough;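 note: controls were the assay level and a saturating level of protein; the project sought stronger binding though the title names inhibitors; some compounds called inactive have numbers as strong as hits; positive values seem to mean higher polarization but the record does not say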
Target sequence (P41235 whole entry, looked up): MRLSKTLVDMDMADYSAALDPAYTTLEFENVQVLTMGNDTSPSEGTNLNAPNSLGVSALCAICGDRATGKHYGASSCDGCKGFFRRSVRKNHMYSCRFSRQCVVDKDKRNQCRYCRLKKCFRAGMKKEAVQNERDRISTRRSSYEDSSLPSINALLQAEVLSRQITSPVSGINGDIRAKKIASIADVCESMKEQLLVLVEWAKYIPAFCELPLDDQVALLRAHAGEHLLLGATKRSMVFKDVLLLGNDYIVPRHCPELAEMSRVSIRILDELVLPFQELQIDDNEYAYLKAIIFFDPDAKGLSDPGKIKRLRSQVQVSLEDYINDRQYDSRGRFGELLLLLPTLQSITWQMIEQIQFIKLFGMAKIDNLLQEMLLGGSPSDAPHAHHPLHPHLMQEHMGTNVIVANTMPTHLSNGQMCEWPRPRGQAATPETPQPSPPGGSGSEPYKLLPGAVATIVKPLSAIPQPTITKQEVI
Vif TR-FRET = inhibitors of Vif binding to APOBEC3G peptide, primary screen, biochemical, TR-FRET, GST-Vif 1-94, biotin-A3G peptide, dose response retest (AID 1117319) | hit rate 0.57% among 260,000 | one-dose inhibition, %; IC50 in µM for titrated hits | TR-FRET GST-Vif / biotin-A3G peptide binding; higher % means a stronger effect; test concentration not given here; strong numbers were not always called active;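 active = above the screen mean plus three standard deviations and confirmed in dose response; inconclusive = results disagree or hit not tested in dose response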;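 note: Vif residues 1-94 fused to GST binding biotinylated APOBEC3G peptide 110-148; 0% = full assay without inhibitor and 100% = GST in place of GST-Vif; retest series ran down from 100 µM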
Numbers without * were called inactive; i = inactive; ? = inconclusive; · = no result given; & = joins results of further samples. The order is random (roughly 2.1% active in at least one column).

SMILES	Ecoli growth	Beta2AR agonist	LANA-H2B inh	UCH37 DUB inh	A1 inh	HNF4A DNA FP	Vif TR-FRET
Cc1cccc(CCNC(=O)CCS(=O)(=O)c2cc3c(cc2Cl)NC(=O)CO3)c1	0.66	1	-2.2	-0.2	1.3	4.6	·
CCN1CCN(c2ccc(NC(=O)c3ccc4c(c3)[nH]c(=O)n4Cc3ccc(F)cc3)cc2)CC1	0.65	16	-2.3	7.0	-0.3	3.6	-8%
CC1CCCCC1NS(=O)(=O)c1ccc(S(=O)(=O)N2CCCC2)cc1 (stereo not drawn)	0.72	8	3.9	5.0	-0.1	-1.4	3%&13%
COC(=O)c1cc(OC)c(OC)cc1NC(=O)Cc1cccs1	0.67	0	0.7	-9.3	-0.4	0.2	10%
COC(=O)/C=C/c1ccc2c(c1)S(=O)(=O)N(c1cccc(OC)c1)[C@H]2CC(=O)OC	·	-6	-0.4	0.1	-0.9	-1.1	·
Nc1nccnc1C(=O)OCC(=O)c1ccc[nH]1	0.67	11	-1.3	i	-0.2	2.2	4%
O=S(=O)(Nc1cccc(-c2cn3ccsc3n2)c1)c1ccc(F)cc1	0.71	-5	9.9	4.4	-0.1	0.6	6%
CCN(CC(=O)Nc1c(F)cccc1F)C(=O)COc1ccc2c(C)cc(=O)oc2c1	0.64	-1	-1.4	-38	0.5	0.5	0%
COCCCNC(=O)C[C@H]1C[C@H](C(=O)N(C(C)C)C(C)C)[C@@]2(C)c3[nH]c4ccc(Cl)cc4c3CCN2C1=O	0.7	1	·	1.8	·	4.6	-4%
Nc1nccnc1C(=O)OCC(=O)N1CCN(S(=O)(=O)c2ccc(Cl)cc2)CC1	0.68	5	·	i	0.6	-1.4	1%
CCOC(=O)c1c(C)[nH]c(C)c1S(=O)(=O)NCC(=O)Nc1ccccn1	0.7	-2	0.1	2.7	-1.1	-0.8	·
CC1=CC(C)(C)N2C(=O)C3(C(C#N)=C(N)OC4=C3C(=O)CCC4)c3c(C)c(C)cc1c32 (stereo not drawn)	0.68	-5	-1.0	4.4	-1.0	-1.0	-4%
O=C(NCCc1ccncc1)C12CC3CC(CC(C3)C1)C2	0.67	5	1.4	2.1	0.0	0.4	0%
CC1=C(C(=O)NCCN2CCOCC2)C2(CCC(C)CC2)OC1=O (stereo not drawn)	0.7	0	1.7	0.5	0.2	4.2	2%
Cc1ccc2nc(C)cc(C(=O)NC3CCCCCC3)c2c1	0.69	-8	0.7	-8.3	-0.8	4.6	·
c1ccc(C[n+]2c(-c3ccccc3)csc2Nc2ccccc2)cc1	0.72	3	-7.0	0.1	-1.0	3.1	·
O=C(O)c1ccc(S(=O)(=O)N2CCC3(CC2)CC(=O)c2ccccc2O3)cc1	0.61	4	-3.9	-62	0.4	-1.3	-4%
CCN(CC)C(=S)Oc1ccc(Cl)cc1Cl	0.69	10	-3.6	3.6	1.1	-1.3	14%
CCOCCN(C(=O)c1ccccc1Cl)c1ccccc1	0.71	-2	0.0	1.5	0.3	3.6	-1%
CC(C)c1ccc(NC(=O)c2cc(S(=O)(=O)NCC3COc4ccccc4O3)ccc2F)cc1 (stereo not drawn)	0.71	22	3.9	2.2	1.1	4.0	?
O=C(NC1CC1)C1CCN(S(=O)(=O)c2ccc(Cl)cc2)CC1	0.69	-3	-0.2	4.9	-0.2	3.0	2%
CSc1ccc(/C=C/C(=O)OCC(=O)NC2CCS(=O)(=O)C2)cc1 (stereo not drawn)	0.64	11	0.7	-393	-0.7	0.2	10%
Clc1ccccc1OCCCn1ccnc1	0.67	-1	0.8	1.6	1.0	-0.6	·
CCCC(C(=O)NNC(=O)c1cc(C)oc1C)c1ccccc1 (stereo not drawn)	0.67	-1	5.4	1.1	1.0	5.7	0%
CCC1CCCCN1CCCNC(=O)c1cn(CC)c2ccc(S(=O)(=O)N3CCc4ccccc4C3)cc2c1=O (stereo not drawn)	0.71	9	3.3	7.0	1.4	1.1	·
CC(C)C(=O)Nc1nc2cc3c(cc2s1)OCO3	0.77	2	0.4	4.6	-4.4	-4.8	-1%
Cc1ccc(S(=O)(=O)Nc2cc(-c3ccccc3)nn2C)cc1Cl	0.69	3	1.8	2.2	-0.4	-1.3	·
O=C(O)/C=C/C(=O)OC1CC2CCC1C2 (stereo not drawn)	0.65	2	11	1.4	0.2	0.2	·
CCc1ccc(NC(=O)C(C)OC(=O)CN2C(=O)NC3(CCCC3)C2=O)cc1 (stereo not drawn)	0.64	9	-3.5	2.4	0.4	1.3	-6%
CCOC(=O)CSc1nnc(NCC(=O)OC)c(=O)[nH]1	0.63	1	-1.6	8.5	-0.9	-3.3	-3%
CCOC(=O)C(CC)(CC)C(=O)/C=C/c1ccc(Br)cc1	0.75	18	-4.4	-1.3	-0.7	-1.9	-4%
Cc1[nH]c(C)c(S(=O)(=O)NCc2ccc(N(C)C)cc2)c1C(=O)N1CCCC1	0.69	3	3.0	1.9	0.1	2.4	5%
CCOc1cc(C(=O)Nc2ccc(N3CCN(C(C)=O)CC3)cc2)cc(OCC)c1OCC	0.72	-3	6.2	6.4	-0.9	-4.6	·
Cc1cc(NC(=NC2CC2)c2ccccc2F)n(-c2ccccc2)n1	0.66	2	4.2	1.0	0.8	4.6	1%
NS(=O)(=O)c1ccc(CCNC(=O)c2coc3ccccc3c2=O)cc1	0.65	-3	-4.7	1.5	0.8	-1.3	-2%
CC(C)c1ccc(C(O)c2nc3ccccc3n2C)cc1 (stereo not drawn)	0.67	-11	-0.8	20	-1.0	1.6	-2%

Record cards, as listed above. Order of values: Ecoli growth, Beta2AR agonist, LANA-H2B inh, UCH37 DUB inh, A1 inh, HNF4A DNA FP, Vif TR-FRET
Shown for CCc1ccc(NC(=O)C(C)OC(=O)CN2C(=O)NC3(CCCC3)C2=O)cc1 (stereo not drawn) → 0.64, 9, -3.5, 2.4, 0.4, 1.3, -6%
Shown for O=C(O)/C=C/C(=O)OC1CC2CCC1C2 (stereo not drawn) → 0.65, 2, 11, 1.4, 0.2, 0.2, ·
Shown for CCOc1cc(C(=O)Nc2ccc(N3CCN(C(C)=O)CC3)cc2)cc(OCC)c1OCC → 0.72, -3, 6.2, 6.4, -0.9, -4.6, ·

The list goes on.
SMILES	Ecoli growth	Beta2AR agonist	LANA-H2B inh	UCH37 DUB inh	A1 inh	HNF4A DNA FP	Vif TR-FRET
Cc1nc(SCC(=O)OCc2ccccc2)c2c(=O)n(C)c(=O)n(C)c2n1	0.77	5	-0.6	7.1	0.2	-2.1	-10%
CSc1ccc(/C=C(/NC(=O)c2ccccc2)C(=O)NCCCn2ccnc2)cc1	0.65	-11	7.0	5.9	0.3	5.0	·
C[C@H](CO)N1C[C@H](C)[C@@H](CN(C)Cc2ccc(C(=O)O)cc2)Oc2c(NS(=O)(=O)c3ccc(F)cc3)cccc2C1=O	0.75	0	3.4	-0.9	0.0	0.5	·
O=c1c(/C=N\NS(=O)(=O)c2ccccc2)coc2ccc(Cl)cc12	·	2	0.4	·	-0.5	2.0	·
CC1CCCN(c2cc(N(C)CCO)c([N+](=O)[O-])c3nonc23)C1 (stereo not drawn)	0.65	10	-0.4	22*	1.3	17	1%
CN(C)S(=O)(=O)c1cccc(NC(=O)/C=C/c2ccc(S(=O)(=O)N3CCOCC3)cc2)c1	0.7	12	0.4	7.2	0.8	3.4	-10%
Cc1ccc(CN2C(=O)CCC2C(=O)NCCCN2CCCC(C)C2)cc1 (stereo not drawn)	0.76	-4	-5.8	-0.9	0.0	1.4	0%
CO/N=C/CC(=O)c1cnc(-c2ccccc2)s1	·	-2	0.6	·	0.3	3.1	·
Cc1cccc(Nc2c(O)nc[nH]c2=O)c1	0.73	1	·	3.2	·	-0.1	-7%
Cc1cc(Nc2cccc(C)c2C)n2ncnc2n1	0.68	13	-1.2	1.2	-0.8	0.1	-2%
O=C(COc1ccc(Cl)cc1Cl)OCC(=O)c1ccc[nH]1	0.62	-3	i	2.0	0.2	-0.3	·
COc1ccccc1NC(=O)c1cc(Sc2nncn2C)nc2ccccc12	0.75	-3	1.0	-0.1	0.2	-1.1	-9%
COc1cc(C)c(S(=O)(=O)N2CCOCC2)cc1C(C)C	0.68	0	0.3	0.9	0.5	2.6	-2%
O=C(NC1CCc2ccccc21)C1CCN(S(=O)(=O)c2ccc(-n3cnnn3)cc2)CC1 (stereo not drawn)	0.78	-12	-1.4	0.9	0.1	-3.6	13%&-4%
CCN(C(=O)COC(=O)C1CCN(S(=O)(=O)c2c(Cl)cccc2Cl)CC1)C1CCCCC1	0.72	0	-2.9	4.5	-0.3	2.7	-4%
CN(C)C1(CNC(=O)Nc2ccccc2)CCCCC1	0.7	0	-3.1	-1.7	2.4	3.5	·
CCCOC(=O)c1ccc(NC(=O)C2C3C=CC(O3)C2C(=O)O)cc1 (stereo not drawn)	·	-3	-0.9	-3.0	0.9	-1.7	4%
O=C(CN1C(=O)c2ccccc2S1(=O)=O)Nc1ccccn1	0.65	0	-0.3	3.7	1.9	-3.6	2%
NC(=O)N1CCCC1C(=O)Nc1ccc(Cl)c(Cl)c1 (stereo not drawn)	0.66	-9	0.7	0.6	-0.4	-0.9	3%
O=S(=O)(/C=C/c1ccccc1)Nc1ccc(N2CCOCC2)cc1	·	-4	-5.3	2.2	-0.8	1.1	15%
O=C(Nc1cccc(Cl)c1)N1N=CCC1c1ccccc1 (stereo not drawn)	0.62	4	4.6	0.7	0.4	0.4	·
Cc1cc(S(=O)(=O)N(Cc2cccs2)Cc2ccccc2F)ccc1-n1cnnn1	0.75	2	-3.0	6.7	-0.6	3.0	15%
COc1cccc(/C=N\NC(=O)c2cc(OCC(F)(F)F)ccc2OCC(F)(F)F)c1	·	-10	2.3	·	-0.1	0.4	0%
N=C(N)N=Nc1c(O)[nH]c2ccc(Br)cc12	0.7	3	0.6	15	-0.1	-1.7	2%
O=C(c1ccccc1Sc1c(Cl)cccc1[N+](=O)[O-])N1CCOCC1	0.74	-5	-3.6	5.1	1.2	-7.4	12%
CCCOc1ccc(/C=N/Nc2ccccc2[N+](=O)[O-])c(OCCC)c1	·	10	1.8	·	-0.8	-2.4	6%
Cc1ccc(NC(=O)c2cc(S(=O)(=O)N3CCOCC3)cs2)cc1	0.67	7	2.9	2.9	-1.0	2.1	3%
Cc1cccc(-n2c(O)c(/C=N/NC(=O)c3ccccc3Cl)c3ccccc3c2=O)n1	0.63	28	-4.4	-6.4	0.5	5.5	·
COC(=O)c1ccc(-c2csc(NC(=O)c3ccc(S(=O)(=O)N4CCc5ccccc5C4)cc3)n2)cc1	0.76	1	0.0	-21	-0.4	-0.2	-112%
CCn1cc([N+](=O)[O-])c(C(=O)NCc2ccc3c(c2)OCO3)n1	0.67	-10	2.8	6.3	-0.4	-1.4	·
C=C(C)C1CC=C(C)/C(=N/NC(=O)COc2ccc(C)cc2)C1 (stereo not drawn)	·	-25	-0.7	·	0.7	-2.8	-1%
Cc1ccc(-c2nc3cc(NS(=O)(=O)c4ccc(C)cc4)ccc3o2)cc1	0.74	-2	3.3	-22	1.4	0.5	-4%
NC(=O)c1ccccc1NC(=O)COC(=O)C1(c2ccccc2)CC1	0.65	4	1.2	1.2	0.1	-2.1	2%
CCN1C(=O)[C@H]2[C@@H](c3ccc(-c4ccc(Cl)c(Cl)c4)c(OC)c3)N[C@@](C)(C(=O)OC)[C@H]2C1=O	·	9	1.6	1.0	0.1	0.8	·
CC1CCCC(C)N1CC(O)COCC1COc2ccccc2O1 (stereo not drawn)	0.73	-6	-2.8	0.3	0.1	-1.0	23%

Bioassay records deposited in PubChem by several laboratories.
